RanGTP-Imp inh = inhibitors of RanGTP-importin-beta interaction, primary screen, biochemical, FRET, CFP-Ran, YFP-importin-beta, homogeneous; cell-free CFP-Ran/YFP-importin-beta FRET ratio; inhibition, % (concentration not given with the values); 1.1% of 300,000 active; AID 2216;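 active = most replicates above 15%; inconclusive = exactly half above 15%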;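 also: 0% = DMSO wells and 100% = Ran loaded with GDP instead of GTP; wells of about 40 µL received 100 nL stock; the first replicate is given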
UCH37 inh = inhibitors of human deubiquitinating enzyme UCH37 | purified proteasome/UCH37, Ub-AMC cleavage fluorescence | inhibition, % (no concentration beside the values) | 0.33% of 330,000 active | AID 588478;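 active = mean of two replicates above 20%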;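 also: 0% = compound-free wells with enzyme and 100% = wells lacking proteasome; stock transfer was 100 nL into about 20 µL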
Target sequence (Q9Y5K5 whole entry, looked up): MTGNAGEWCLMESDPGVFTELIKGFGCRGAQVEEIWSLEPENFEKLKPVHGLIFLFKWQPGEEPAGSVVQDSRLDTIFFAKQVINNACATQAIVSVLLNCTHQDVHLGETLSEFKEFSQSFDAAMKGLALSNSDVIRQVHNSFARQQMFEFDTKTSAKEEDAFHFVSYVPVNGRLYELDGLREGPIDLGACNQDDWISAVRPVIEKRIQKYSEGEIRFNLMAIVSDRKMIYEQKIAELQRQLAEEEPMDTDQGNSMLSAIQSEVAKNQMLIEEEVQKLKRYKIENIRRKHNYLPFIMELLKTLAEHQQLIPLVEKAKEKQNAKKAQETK
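Schedule: 30 min plus 25 min, room temperature / Material: human UCH37 within purified proteasomes / Technique: AMC fluorescence intensity at 355/460 nm / Buffer or medium: pH 7.4 Tris-HCl (50 mM) with ovalbumin, ATP-MgCl2, DTT / Controls: wells without proteasome as full block, compound-free enzyme plus substrate as uninhibited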
Vif A3G = inhibitors of Vif binding to APOBEC3G peptide, primary screen, biochemical, TR-FRET, GST-Vif 1-94, biotin-A3G peptide, dose response retest (AID 1117319) | TR-FRET GST-Vif / biotin-A3G peptide binding; higher % means a stronger effect; test concentration not given here; strong numbers were not always called active | inhibition, %; hits with a dose series show IC50 in µM | 0.57% of 260,000 active;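 active = above the screen mean plus three standard deviations and confirmed in dose response; inconclusive = results disagree or hit not tested in dose response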;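 also: Vif residues 1-94 fused to GST binding biotinylated APOBEC3G peptide 110-148; 0% = full assay without inhibitor and 100% = GST in place of GST-Vif; retest series ran down from 100 µM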
FGF22 binding = binders of recombinant human FGF22 by thermal shift | Q9HCT0 | SYPRO orange fluorescence; percent of sucrose octasulfate shift, DMSO zero | calls only at 9.99 µM | 1.5% of 340,000 active | AID 651658;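 active = melting point raised past a set limit in the mean and every replicate; inconclusive = no clear call; three in four hits are not shown here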
Target sequence (Q9HCT0 whole entry, looked up): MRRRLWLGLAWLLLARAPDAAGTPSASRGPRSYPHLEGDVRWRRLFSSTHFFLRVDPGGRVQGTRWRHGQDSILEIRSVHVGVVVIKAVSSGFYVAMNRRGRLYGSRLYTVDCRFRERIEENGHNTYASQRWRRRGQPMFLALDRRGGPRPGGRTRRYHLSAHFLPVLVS
HNF4A DNA FP = change in binding of human HNF4 alpha to DNA; P41235; HNF4a-FITC DNA binding, fluorescence polarization, 1 h; activity change, % at 10 µM; 0.3% of 360,000 active; in the data active = activity change above about 30%, passing the limit was not always enough;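 also: controls were the assay level and a saturating level of protein; the project sought stronger binding though the title names inhibitors; some compounds called inactive have numbers as strong as hits; positive values seem to mean higher polarization but the record does not say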
Target sequence (P41235 whole entry, looked up): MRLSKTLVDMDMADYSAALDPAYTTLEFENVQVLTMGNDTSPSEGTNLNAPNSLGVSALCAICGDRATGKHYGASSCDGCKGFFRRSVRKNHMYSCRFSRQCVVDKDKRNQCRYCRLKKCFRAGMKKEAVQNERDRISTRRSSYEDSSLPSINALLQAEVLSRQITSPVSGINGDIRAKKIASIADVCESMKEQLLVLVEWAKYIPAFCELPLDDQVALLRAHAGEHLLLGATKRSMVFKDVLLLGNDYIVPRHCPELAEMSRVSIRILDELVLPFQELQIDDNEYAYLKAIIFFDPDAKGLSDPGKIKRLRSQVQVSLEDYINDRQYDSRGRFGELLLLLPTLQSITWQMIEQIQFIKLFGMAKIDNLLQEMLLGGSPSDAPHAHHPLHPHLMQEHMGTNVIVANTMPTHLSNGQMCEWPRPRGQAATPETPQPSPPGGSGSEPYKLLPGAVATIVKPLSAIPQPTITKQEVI
AF4-AF9 inh = blocks AF4 peptide binding to human AF9. P42568. AlphaScreen, biotin-AF4 peptide binding to FLAG-AF9. inhibition, % at 10 µM. 0.47% of 350,000 active. AID 651704;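 active = every replicate reaching a set inhibition limit, whatever the replicate mean, cut at about 25% in these data; inconclusive = mean inhibition reaches that limit but some replicates miss it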;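 also: 0% = plate neutral control median and 100% = total signal loss; the record names both 10 and 1 µM as test concentration; the first replicate is given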
E coli growth = E. coli growth inhibition; Escherichia coli growth, OD600, 23 h; active compounds read low; OD600 absorbance (concentration not given with the values); 0.21% of 330,000 active; AID 1053175;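 active = OD600 absorbance below the run mean of sample wells minus 3.6 SD, in any replicate, cut at about 0.56 in these data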;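 also: stock transfer was 300 nL into about 60 µL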
* hit, by the source's call; i = inactive; ? = inconclusive; / = not tested or not shown; & = joins results of further samples. An excerpt; the hit share may differ from the screen's.

no.	SMILES	RanGTP-Imp inh	UCH37 inh	Vif A3G	FGF22 binding	HNF4A DNA FP	AF4-AF9 inh	E coli growth
1	CCOC(=O)/C(=N\Nc1ccccc1)c1csc(Nc2ccc(C)cc2)n1	4.8	/	1%	i	2.5	-214	/
2	O=C(Nc1nccs1)c1ccccc1[N+](=O)[O-]	-3.6	2.4	-10%	i	0.3	4.8	0.62
3	COc1ccc(S(=O)(=O)NCCc2c(C)nn(C)c2Oc2ccccc2)cc1	3.7	5.6	7%	/	-1.1	/	0.71
4	Cc1ccc(C(C(=O)NC2CCCCC2)N2CCOCC2)cc1 (stereo not drawn)	1.9	5.6	-3%	/	2.2	/	0.72
5	Cc1cc(C)c(C#N)c(N2CCN(C(=O)C3COc4ccccc4O3)CC2)n1 (stereo not drawn)	/	-5.7	/	i	8.6	-0.4	0.68
6	COCCN1C[C@@H](CO)O[C@@H](n2cnc3c(NCc4ccco4)ncnc32)C1	/	/	/	i	1.1	-5.7	/
7	CC(=O)c1cc(C)ccc1OC(=O)CCN1C(=O)C2C3c4ccccc4C(c4ccccc43)C2C1=O (stereo not drawn)	1.1	1.6	1%	/	-5.1	/	0.75
8	O=C(Nc1nonc1NC(=O)C1CCCCC1)C1CCCCC1	0.1	4.2	1%	/	1.3	/	0.7
9	N#Cc1nc(Cc2cccc3ccccc23)oc1N1CCCCC1	3.0	-0.7	15%	/	-0.4	/	0.7
10	CC(C)c1cccc(-c2csc(C(O)c3ccccc3)n2)c1 (stereo not drawn)	/	/	/	i	-1.1	-1.8	/
11	O=C(Nc1cccs1)Nc1c(F)cc(F)cc1Br	-0.6	0.0	29%	/	3.0	/	0.66
12	COc1ccc(N2CCN(CC(O)COc3ccc(C)c(C)c3)CC2)cc1 (stereo not drawn)	0.9	6.0	2%	i	4.9	9.8	0.63
13	Cc1cc(-c2onc(C)c2C(=O)Oc2ccc(Cl)cc2)no1	?	6.8	-6%	i	-1.0	-4.4	0.62
14	Cc1noc(C)c1S(=O)(=O)N(C)C[C@H]1OCc2cnnn2CCCC(=O)N([C@H](C)CO)C[C@@H]1C	/	/	-1%	i	-4.6	-9.5&1.1	/
15	O=C(NCCc1ccccc1)/C(=N\O)c1ccccc1	4.4	/	9%	/	-0.5	/	/
16	CCc1nnc(NS(=O)(=O)c2ccc(NC(=O)c3cc4ccccc4oc3=O)cc2)s1	-4.2	4.4	?	i	/	2.2	0.73
17	Cc1ccc(C(=O)OCC(=O)NCc2ccccc2)s1	/	/	-4%	i	1.0	-0.6	/
18	CCN(Cc1ccccc1)Cc1c(C)[nH]c2c(C)c(C)ccc2c1=O	-2.8	4.9	20%	/	6.2	/	0.68
19	CCOC(=O)CSc1nc2c(c(=O)[nH]1)C(C)(CC)Cc1ccccc1-2 (stereo not drawn)	-17	-2.2	-3%	i	2.9	-8.3	0.68
20	COc1ccc(S(=O)(=O)N2CC(=O)Nc3ccccc32)cc1Cl	2.4	3.4	/	i	1.3	0.3	0.65
21	O=C(COC(=O)C1CC1)NC(=O)c1ccccc1	/	3.6	/	i	-1.1	-1.2	0.66
22	O=C(CN1CCN(C(=O)c2ccco2)CC1)Nc1cccc(S(=O)(=O)N2CCCC2)c1	/	0.0	3%	i	-1.7	2.7	0.67
23	COc1ccc(-c2cc(C(F)(F)F)nc(-n3cncn3)n2)cc1	3.6	-54	0%	/	17	/	0.68
24	CO[C@H]1/C=C/O[C@@]2(C)Oc3c(C)c(O)c4c(O)c(c(C=NN5CCN(C)CC5)c(O)c4c3C2=O)NC(=O)/C(C)=C\C=C\[C@H](C)[C@H](O)[C@@H](C)[C@@H](O)[C@@H](C)[C@H](OC(C)=O)[C@@H]1C	/	9.1	/	i	11	31*	/
25	COC(=O)c1cc2sccc2n1CC(=O)N1CCCc2ccccc21	-1.6	0.5	1%	/	-0.1	/	0.63

2 entries drawn at random from those above:
no.	SMILES	RanGTP-Imp inh	UCH37 inh	Vif A3G	FGF22 binding	HNF4A DNA FP	AF4-AF9 inh	E coli growth
6	COCCN1C[C@@H](CO)O[C@@H](n2cnc3c(NCc4ccco4)ncnc32)C1	/	/	/	i	1.1	-5.7	/
10	CC(C)c1cccc(-c2csc(C(O)c3ccccc3)n2)c1 (stereo not drawn)	/	/	/	i	-1.1	-1.8	/

The listing picks up; the 2 compounds before the break are reprinted first.
no.	SMILES	RanGTP-Imp inh	UCH37 inh	Vif A3G	FGF22 binding	HNF4A DNA FP	AF4-AF9 inh	E coli growth
24	CO[C@H]1/C=C/O[C@@]2(C)Oc3c(C)c(O)c4c(O)c(c(C=NN5CCN(C)CC5)c(O)c4c3C2=O)NC(=O)/C(C)=C\C=C\[C@H](C)[C@H](O)[C@@H](C)[C@@H](O)[C@@H](C)[C@H](OC(C)=O)[C@@H]1C	/	9.1	/	i	11	31*	/
25	COC(=O)c1cc2sccc2n1CC(=O)N1CCCc2ccccc21	-1.6	0.5	1%	/	-0.1	/	0.63
26	Cc1nn(CC(=O)NCCc2ccc(Cl)cc2)c(=O)c2cccn12	5.0	-2.4	4%	i	3.1	-2.3	0.69
27	COc1ccc(OC)c2c1C(=O)C(Cl)=C(Cl)C2=O	1.3	/	?	i	1.5	-8.0	/
28	CCOc1ccccc1C(=O)N[C@H](C(=O)Nc1ccc(OC)c(S(=O)(=O)N2CCOCC2)c1)C(C)C	/	4.1	-13%	i	-1.9	2.0	0.72
29	CN1CCC(NCCC(c2ccc(F)cc2)c2ccc(Cl)cc2)CC1 (stereo not drawn)	11	7.2	-2%	i	1.1	10	0.51*
30	CCCc1nnc(NS(=O)(=O)c2ccccc2)s1	-1.2	4.8	/	i	0.6	-0.1	0.65
31	CCCCC1CCC(C(=O)OCC(=O)Nc2ccc(S(N)(=O)=O)cc2)CC1 (stereo not drawn)	-2.5	3.8	0%	/	1.1	/	0.71
32	COc1ccc(NC(=S)N(Cc2ccc(C)cc2)Cc2ccccn2)cc1	1.8	-0.8	13%	i	0.0	3.2	0.69
33	CN(CC(=O)Nc1ccccc1C(F)(F)F)C(=O)CC1OC(=O)c2ccccc21 (stereo not drawn)	2.7	0.8	/	i	-5.0	-1.5	0.74
34	COC(=O)c1cc(CNC(=O)c2ccc(N3CCCC3)c([N+](=O)[O-])c2)ccc1OC	-5.6	6.5	-2%	i	4.7	-3.4	0.68
35	O=C(Nc1ccc(OCCO)cc1)c1csc([C@@H]2C[C@H](O)[C@@H](CO)O2)n1	/	/	/	i	0.7	-0.4	/
36	N#CC1C(=O)NC(=O)C(C#N)C12CCCCC2 (stereo not drawn)	/	/	/	i	-1.6	-1.1	/
37	CC(=O)c1ccc(NC(=O)c2cccs2)cc1	-4.1	1.5	-3%	i	-5.3	4.8	0.66
38	COC(=O)Cc1ccc(NC(=O)c2ccc3c(c2)C(=O)N(CC2CCCO2)C3=O)cc1 (stereo not drawn)	/	2.1	/	i	-2.7	-0.8	0.63
39	COc1cc(-c2nnc(-c3ccccc3)o2)cc(OC)c1OC	2.2	-0.5	-5%	/	-0.1	/	0.67
40	CCN1CCN(C(=O)c2ccc(COc3cccc(Cl)c3)o2)CC1	?	2.6	/	i	-2.5	2.3	0.63
41	Cc1ccccc1-c1nc(CS(=O)(=O)CC(=O)NCCN2CCOCC2)c(C)o1	?	-1.1	-3%	i	6.9	-1.1	0.78
42	Cc1nc2ccc(C(=O)N(C)Cc3ccco3)cn2c1N(C)C(=O)CCc1ccccc1	/	/	/	i	-2.6	-3.0	/
43	CCn1c(C)c(CS(=O)(=O)c2ccccc2)[nH]c1=O	3.9	6.0	-14%	i	1.4	1.2	0.7
44	COc1ccc(-c2c(C(=O)c3ccc(Br)cc3)[nH]c(N)c2C(=O)c2ccccc2)cc1OC	/	/	/	i	-2.4	0.4	/
45	CC(NC(=O)CCCCCNC(=O)N1CCn2c1nc1ccccc12)c1ccccc1 (stereo not drawn)	2.0	1.2	/	i	-1.1	-3.6	0.62
46	O=C(CSc1nc2ccccc2c(=O)[nH]1)Nc1ccccc1N1CCOCC1	0.7	-1.1	4%	i	2.8	2.0	0.71
47	Clc1nc(NC2CCCC2)nc(N2CCOCC2)n1	0.5	0.5	/	i	0.1	-3.0	0.64
48	O=C1C(=O)N(c2cccc(Cl)c2)C(c2ccccc2[N+](=O)[O-])/C1=C(\O)c1ccccc1 (stereo not drawn)	-5.1	9.8	3%	i	13	7.4	0.67
49	COc1cc2c(cc1OC)C(C)N(C(=O)Nc1ccccc1)CC2 (stereo not drawn)	-2.7	2.4	-11%	i	5.0	-9.8	0.65
50	CN1/C(=C\C=C(C#N)C#N)C(C)(C)c2ccccc21	-36	4.7	-18%	i	-117	-1.1	0.77

Marked active in AF4-AF9 inh (from the list above):
cpd	compound	RanGTP-Imp inh	UCH37 inh	Vif A3G	FGF22 binding	HNF4A DNA FP	AF4-AF9 inh
24	CO[C@H]1/C=C/O[C@@]2(C)Oc3c(C)c(O)c4c(O)c(c(C=NN5CCN(C)CC5)c(O)c4c3C2=O)NC(=O)/C(C)=C\C=C\[C@H](C)[C@H](O)[C@@H](C)[C@@H](O)[C@@H](C)[C@H](OC(C)=O)[C@@H]1C	/	9.1	/	i	11	31*

Additional records:
no.	SMILES	RanGTP-Imp inh	UCH37 inh	Vif A3G	FGF22 binding	HNF4A DNA FP	AF4-AF9 inh	E coli growth
51	CCCOc1cccc(C2C(C(=O)c3cccs3)=C(O)C(=O)N2CCN2CCOCC2)c1 (stereo not drawn)	1.3	4.8	-5%	i	2.0	2.1	0.66
52	COc1ccc2oc(=N)c(-c3nnc4n3CCCCC4)cc2c1	10	-105	3%	/	-2.9	/	0.72
53	COc1ccc(Cl)cc1NC(=O)CN(C)CC(=O)Nc1ccc2c(c1)OCO2	/	5.0	-8%	i	-2.0	0.6	0.68
54	COc1ccccc1-c1nnc(Sc2nc([N+](=O)[O-])nn2C)o1	-1.7	3.7	-4%	/	1.3	/	0.74
55	CC(=O)Nc1cccc(C(=O)NC(C)c2ccc(-n3ccnc3)cc2)c1 (stereo not drawn)	4.7	-0.9	/	i	0.7	5.0	0.68
56	O=C1CC(=O)C(n2cncn2)C(c2cccc(Cl)c2)C1 (stereo not drawn)	0.4	1.1	5%	/	-1.9	/	0.75
57	O=C(COC(=O)c1ccccc1O)NC12CC3CC(CC(C3)C1)C2	/	1.9	/	i	2.5	3.5	0.7
58	CCc1nc2c(OCC3COc4ccccc4O3)cccn2c1N(C)C(=O)c1ccc(OC)cc1 (stereo not drawn)	/	/	/	i	0.5	0.6	/
59	CCN1CCN(c2ccc(S(=O)(=O)N3CCCCC3)cc2NC(=O)COc2ccc(Cl)cc2)CC1	6.0	0.0	-6%	i	-0.1	3.5	0.7
60	O=C(Nc1nnc(-c2ccccc2)s1)c1cccc(S(=O)(=O)N2CCOCC2)c1	1.5	-3.0	-4%	/	2.6	/	0.71
61	O=C(C(O)c1ccccc1)N1CCN(S(=O)(=O)c2ccc(C(F)(F)F)cc2)CC1 (stereo not drawn)	/	/	/	i	2.4	-1.2	/
62	O=S(=O)(Nc1nc2c(s1)CCCC2)c1ccc2ccccc2c1	-1.8	0.4	2%	/	-7.5	/	/
63	COc1ccc(-c2cc(C(=O)NCc3ccco3)no2)cc1OC	/	3.2	1%	/	0.2	/	0.71
64	CC1(c2ccccc2Cl)NC(=O)N(CC(=O)Nc2ccc(N3CCCCC3)cc2)C1=O (stereo not drawn)	5.7	4.6	/	i	2.2	9.0	0.68

Source: PubChem BioAssay (several laboratories)
